Bioassay records from PubChem.
miR-21 FLuc: miR-21 reporter, rising signal. HeLa miR-21 FLuc reporter, luciferase, 48 h. Potency, µM (highest dose often 38.3 µM), inactives show at the top dose reporter change, positive = more light. 340,000 tested, under 10 active. AID 2288; active = well fitted rising curve with a large enough effect; inconclusive = small, poorly fitted or top-dose-only effect; inactive = no such curve, though single readings can be large or run the other way;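 also: % of control where 0% means no effect; miR-21 action dims this reporter so a rising signal means less miR-21 action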
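HeLa cells stably expressing CMV-driven firefly luciferase with a downstream miR-21 binding sequence, endogenously expressing miR-21, were treated with titrations (up to about 40uM final) for 48 hours at 37 degree Celsius. Luciferase luminescence was read after lysis.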
Rango dissoc inh: prevents RanGTP from dissociating the Rango-importin beta complex; O95149+P62826; Biochemical FRET Rango-importin beta, RanGTP-induced dissociation; Potency, µM (top dose mostly 46.1 µM), for the others: at the top dose activity change, negative = inhibition; 340,000 tested, 0.071% active; AID 540253; active means falling FRET ratio curve, often poorly fitted, with flat reads before Ran was added; inconclusive means other falling curves, or compound fluorescence or quenching; inactive means flat or rising ratio curve;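 also: potency is read from the fitted curve at half-maximal effect; % of control where 0% means no effect; nearly all actives have a fitted effect of over 45% in size; -100% = wells without RanGTP and RCC1; the record marks most hits as doubtful in a second field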
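Recombinant Rango FRET biosensor (EYFP–snurportin 1 IBB–cerulean CFP10) at 0.1 uM premixed with 0.25 uM importin beta in PBS, 1 mM DTT, 0.02% Tween-20, 0.1% BSA. Compound added 5 min; RanGTP-RCC1 (0.6 uM Ran, 2 mM GTP, 0.2 uM RCC1) then triggers release, read at 45 min.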
GLA inh pH 4.5: inhibitors of human alpha-galactosidase A at pH 4.5; purified enzyme, 4-MU-alpha-Gal fluorescence, pH 4.5; AID 1467; 230,000 tested, under 10 active; activity change, negative = inhibition, % at 105 µM; P06280; inconclusive = small, poorly fitted or top-dose-only inhibition, or a rising curve; inactive = flat fitted curve, though single readings scatter; no compound was filed as active;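 also: 0% = full activity with enzyme and -100% = basal without enzyme; dose as in the result columns while the protocol names 77 µM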
Target sequence (P06280 whole entry, looked up): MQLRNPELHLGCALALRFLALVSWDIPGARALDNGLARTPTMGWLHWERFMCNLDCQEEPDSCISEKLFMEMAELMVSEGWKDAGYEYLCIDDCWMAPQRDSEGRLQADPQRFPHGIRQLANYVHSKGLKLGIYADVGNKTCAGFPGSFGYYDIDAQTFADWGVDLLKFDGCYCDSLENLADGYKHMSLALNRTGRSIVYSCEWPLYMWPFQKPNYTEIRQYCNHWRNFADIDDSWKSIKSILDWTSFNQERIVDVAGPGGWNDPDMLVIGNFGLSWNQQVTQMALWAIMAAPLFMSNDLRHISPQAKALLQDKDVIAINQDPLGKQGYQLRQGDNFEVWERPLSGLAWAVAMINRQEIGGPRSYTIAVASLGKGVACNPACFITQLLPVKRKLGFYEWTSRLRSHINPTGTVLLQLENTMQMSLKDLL
Rango complex inh: inhibitors of Rango-importin beta complex formation. Q14974. Rango CFP/YFP FRET sensor + importin beta, 45 min. Potency, µM (series often up to 92.2 µM), without a hit: at the highest dose inhibition of complex formation. 340,000 tested, 0.031% active; active = rising FRET ratio curve, often small or poorly fitted; inconclusive = mostly compound fluorescence or quenching in the first reads; inactive = flat curves in all reads;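 also: potency is read from the fitted curve at half-maximal effect; 0% = DMSO wells and 100% = buffer wells lacking importin beta; nearly all actives have a fitted effect of over 15% in size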
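FRET biosensor Rango (snurportin 1 IBB between N-terminal EYFP and C-terminal Cerulean), 50 nM in PBS/1 mM DTT/0.02% Tween-20/0.1% BSA, preincubated 5 min RT with compound; 0.125 microM importin beta added, 45 min RT, CFP/YFP FRET ratio read.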
* hit, by the source's call; u = inconclusive; x = no result given; & = joins results of further samples. Not all compounds are listed; rates above refer to the full screens.

Second line of a record – miR-21 FLuc, Rango dissoc inh, GLA inh pH 4.5, Rango complex inh
CC(NC(=O)C1CCC(=O)N1Cc1ccc(F)cc1)c1ccc2c(c1)OCCO2 (stereo not drawn)
  -2%, 1%, -5, 10%
COC(=O)c1cc(OC)c(OC)cc1NC(=S)N1CCCC1
  -1%, 6%, 8, 2.9%
COc1nc(OC)nc(N2CCC(C(=O)NCc3ccco3)CC2)n1
  -3%, -5%, 9, 0.2%
O=C(O)CCc1nc(-c2ccccc2Cl)no1
  -4%, 28%, -2, -0.4%
O=C1CCCc2ccccc2N1
  -1%, 3%, 13, 0.5%
Nc1cc(=O)[nH]c(SCC(=O)Nc2cc([N+](=O)[O-])ccc2Cl)n1
  6%, -3%, -1, 0.8%
CCCC1(C(=O)OC)NC(c2ccc(OC)c(OC)c2)C2C(=O)N(c3ccc4c(c3)OCO4)C(=O)C21 (stereo not drawn)
  0%, 1%, u, 0.2%
O=C(/C=C/c1ccc([N+](=O)[O-])cc1)OCc1cnc(-c2ccccc2)o1
  1%, 4%, -2, -1.9%
CC1COc2ccccc2N1C(=O)c1ccc(F)cc1 (stereo not drawn)
  -2%, 4%, x, 3.6%
O=C(/C=C/c1cccc([N+](=O)[O-])c1)N1CC[C@@]2(O)CCCC[C@H]2C1
  -13%, -18%, -1, -2.4%
O=C(COC(=O)CCSc1ccccc1)NCc1ccccc1Cl
  -4%, -3%, 8, -2.2%
Cc1cccc(NC2CCCCC2NS(=O)(=O)c2ccccc2)c1 (stereo not drawn)
  4%, -8%, x, 0.7%
COc1cccc(CNC(=O)c2ccccc2-c2ccccc2C(=O)O)c1
  1%, 1%, x, -5.9%
CN(CCc1ccccc1)C(=O)c1ccc(NC(=O)Cc2cccc(NC(=O)C3CCN(C(=O)CCc4ccccc4)CC3)c2)cc1
  x, 13%, x, -0.7%
CN(C)CCC(=O)N1c2ccccc2Sc2ccc(Cl)cc21
  0%, -3%, -3, 2.4%
COc1cc(C=C2C(=O)OC(c3ccccc3)OC2=O)cc(Br)c1O (stereo not drawn)
  -3%, -13%, 1, -0.3%
Cc1cccc(C=Nc2ccc3c(c2)oc2ccccc23)c1O
  -52%, 11%, 5, -2.7%
C=CCn1c(SCC(=O)N(CC)C2CCS(=O)(=O)C2)nc2cc(C(=O)O)ccc2c1=O (stereo not drawn)
  x, 1%, x, -2.0%
COc1cccc(-c2c(C(=O)N/N=C/c3ccc(C)s3)nnn2-c2nonc2N)c1
  -5%, 10%, x, -1.8%
O=S(=O)(Nc1ccc(Cl)cn1)c1cccc(S(=O)(=O)c2ccccc2)c1
  -1%, 6%, 11, 2.7%
CCOc1ccccc1NC(=S)N(CCC(C)C)C1CCN(C(C)=O)CC1
  0%, 7%, 2, -2.1%
CC(C)COC(=O)C(C#N)c1nc2ccccc2nc1N1CCN(Cc2ccccc2)CC1 (stereo not drawn)
  -3%, u, -1, u
CCN(CC)C(=O)Nc1ccc(C(=O)OC)cc1
  -26%, 5%, -1, 3.2%
O=C(NC1CCCCC1)C(c1ccco1)N(C(=O)c1csnn1)C1CCCC1 (stereo not drawn)
  -1%, 2%, 5, -0.5%
Cc1cccc(Nc2nc(-c3sc(C)nc3C)cs2)c1
  -18%, 2%, x, 1.5%
COc1ccc(-n2c(SCC(N)=O)nnc2-c2ccco2)cc1
  -3%, -6%, x, 1.2%
CC(=O)c1cnc2c(C(=O)O)cnn2c1C
  0%, -2%, u, -0.2%
C=CCOc1cccc(C2/C(=C(\O)c3ccc4c(c3)OCCO4)C(=O)C(=O)N2Cc2cccnc2)c1 (stereo not drawn)
  0%, -14%, x, 2.9%
CCOC(=O)c1ccc(NC(=O)NCCc2cnc[nH]2)cc1
  -22%, -15%, x, -0.6%
Cc1ccc(S(=O)(=O)N(C)C)cc1NC(=O)CSc1nnnn1-c1ccc(O)cc1
  7%, -3%, u, -0.4%
C[C@H]1COC(=O)[C@@H](CC(=O)OC(C)(C)C)C/C=C\C[C@@H](CC(=O)N(CCO)Cc2ccccc2)C(=O)N1
  x, -3%, x, -1.2%
Cc1c(O)c(C)c2c(c1O)C(=O)C[C@@H](c1ccccc1)O2
  x, 6%, x, -2.5%
O=C(NC1CC2CCC(C1)N2C(=O)NCc1ccccc1)NC12CC3CC(CC(C3)C1)C2 (stereo not drawn)
  -3%, 3%, 11, 4.5%
O=c1[nH]c(=O)c2ncc(-c3ccc(Cl)cc3)nc2[nH]1
  -2%, x, 19, x
CCCOC(=O)C(C)n1cnc2sc(C)c(C)c2c1=O (stereo not drawn)
  -13%, 12%, 5, u
COc1cccc(COc2ccccc2C2Nc3ccc(Br)cc3C(=O)N2NC(=O)c2ccncc2)c1 (stereo not drawn)
  1%, -13%, -14, 2.9%
S=c1nc2ccccc2c2nc(-c3ccccc3Cl)[nH]n12
  -12%, -1%, x, 1.1%
COc1cccc(CN(C(=O)c2ccccc2Cl)C2CCS(=O)(=O)C2)c1 (stereo not drawn)
  -1%, -15%, x, -0.9%
CC(=O)NC1=NN(C(C)=O)C(c2ccc(F)cc2)S1 (stereo not drawn)
  -1%, 33%, -7, 0.0%
c1ccc2c(c1)CCCN2c1nc2ccccc2n2cnnc12
  -40%, u, -6, u
O=C(CN1CCOCC1)NCCC12CC3CC(CC(C3)C1)C2
  -22%, 9%, 3, 4.8%
COc1ccc(N2CCN(C(=O)CN(Cc3ccccc3)S(C)(=O)=O)CC2)cc1
  7%, 17%, -7, 0.1%
Cc1cc(NC(=O)CCC(=O)N(c2ccccc2)C(C(=O)NC2CCCC2)c2ccccc2)no1 (stereo not drawn)
  -4%, u, -8, 0.1%
CCC1=C(OC(=O)N(CC)CC)N2C(=O)OC(=NCC(=O)OC)[C@]2(C)[C@H]2C1=CC[C@H]1C(=O)NC(=O)[C@H]12
  2%, 11%, -15&3, 0.0%
Cc1ccc(S(=O)(=O)NC(C)C(=O)NCc2ccc(Cl)cc2)cc1 (stereo not drawn)
  x, 1%, x, -0.3%
COc1cccc(NC(=O)CCCn2c(=S)[nH]c3ccccc3c2=O)c1
  3%, -4%, 8, -1.4%
O=[N+]([O-])c1ccccc1CNC1CCCc2ccccc21 (stereo not drawn)
  0%, 4%, 4, 5.2%
Cc1ccc(Oc2ncccc2NC(=O)CCCC(=O)O)c2c1CCC2
  -7%, -8%, 5, -0.7%
CCc1ccc(C2NC(C(=O)O)CS2)cc1 (stereo not drawn)
  3%, x, 4, x
CNC(=O)N1CCN(C(=O)NC)CC1
  0%, -19%, 4, -0.5%

Later entries:
Second line of a record – miR-21 FLuc, Rango dissoc inh, GLA inh pH 4.5, Rango complex inh
COc1ccccc1OCC(=O)Nc1c2c(nn1-c1ccc(F)cc1)CS(=O)(=O)C2
  0%, 2%, x, -2.3%
CC(=O)c1cccc(NCC(=O)Nc2cc(S(=O)(=O)N3CCCCC3)ccc2C)c1
  1%, 2%, x, -4.0%
CCn1cc(C(=O)NCc2ccc3c(c2)OCO3)c(=O)c2ccc(C)nc21
  -6%, x, -3, x
CCOC(=O)/C(C#N)=C/N=c1ccc(C)cn1C
  -57%, -7%, -15, -7.0%
CCc1cc(=O)oc2cc(OCC(=O)NCCCN3CCCC3=O)ccc12
  -7%, 16%, x, 2.0%
O=C(NC1CCCCC1)N1CCN(CCc2ccccc2)CC1
  -6%, -6%, -3, 2.5%
N#CCCN1CCN(C(=S)c2ccc(-c3ccc(Cl)c(Cl)c3)o2)CC1
  -49%, 7%, -5, 1.4%
Cc1ccc(S(=O)(=O)Nc2cccc(-c3ccc4nnc(C)n4n3)c2)s1
  -5%, -8%, 4, 4.4%
COc1ccccc1OC(=O)c1cc2ccccc2oc1=O
  -6%, -12%, x, 0.4%
Cn1nnnc1Sc1ncnc2scc(-c3ccccc3Cl)c12
  x, -3%, x, -1.3%

Molecules above that have a cyano group, in the order listed:
Second line of a record – miR-21 FLuc, Rango dissoc inh, GLA inh pH 4.5, Rango complex inh
CC(C)COC(=O)C(C#N)c1nc2ccccc2nc1N1CCN(Cc2ccccc2)CC1 (stereo not drawn)
  -3%, u, -1, u
CCOC(=O)/C(C#N)=C/N=c1ccc(C)cn1C
  -57%, -7%, -15, -7.0%
N#CCCN1CCN(C(=S)c2ccc(-c3ccc(Cl)c(Cl)c3)o2)CC1
  -49%, 7%, -5, 1.4%

(cont.)
Second line of a record – miR-21 FLuc, Rango dissoc inh, GLA inh pH 4.5, Rango complex inh
O=C(COC(=O)CCC(=O)c1cccs1)Nc1ccccc1[N+](=O)[O-]
  -1%, 1%, -6, 1.7%
O=C(CCc1nnc(C2(c3ccc(Cl)cc3)CCC2)o1)NCCCn1cccn1
  -11%, 6%, -13, 6.7%
Cc1ccc(NC(=O)c2nsc(Cl)c2Cl)cc1
  -58%, 21%, -17, -3.0%
Cc1noc(C)c1NC(=O)N(C)C[C@@H]1Oc2c(NC(=O)NC(C)C)cccc2C(=O)N([C@@H](C)CO)C[C@@H]1C
  x, 0%, x, -1.6%
c1cncc(-c2cn(C[C@H]3CC[C@H](Cn4cc(-c5cccnc5)nn4)O3)nn2)c1
  x, -25%, x, -2.2%
O=C(CN1C(=O)C2C3C=CC(C3)C2C1=O)OCC(=O)c1ccc(Cl)cc1 (stereo not drawn)
  -2%, 8%, x, -1.2%
O=c1cc(N2CCN(c3ccccc3Cl)CC2)[nH]c(=O)n1Cc1ccc(F)cc1
  u, -6%, -3, 0.0%
Cc1cc(Br)ccc1NC(=O)CN(C)C(=O)CSC(=S)N1CCCC1
  x, 12%, x, 0.4%
Cn1c(/N=C/c2c[nH]c3ccccc23)nc2ccccc21
  0%, 21%, 2, -1.4%
NC(=S)N/N=C/c1cc([N+](=O)[O-])ccc1Cl
  7%, 1%, -1, 2.6%
COc1ccc(C2C(C#N)=C(N)Oc3cc4c(cc32)OCO4)cc1 (stereo not drawn)
  -1%, u, -11, u
N#C/C=C/C(=C\Nc1ccc(Cl)cc1)S(=O)(=O)c1ccccc1
  -4%, -24%, x, u
Cc1cc(NC(=O)Cn2nc(C(=O)O)c3ccccc3c2=O)ccc1Br
  -1%, -6%, x, -0.1%
CSc1ccccc1C(=O)N1CCN(c2cccc(Cl)c2)CC1
  23%, 2%, -3, 0.4%
Oc1ccc2ccccc2c1N=Nc1ccccc1F
  -2%, -10%, -7, 0.6%
Cc1nccn1CCCNC(=O)C1CCC(=O)N(Cc2ccccc2F)C1 (stereo not drawn)
  2%, -6%, x, -3.5%
CC(C)(C)c1ccc2c(c1)OC(C(=O)N/N=C/c1ccc([N+](=O)[O-])o1)CO2 (stereo not drawn)
  4%, -2%, -2, -0.2%
O=C1OC(c2ccccc2)c2ccc3ccccc3c21 (stereo not drawn)
  -21%, 11%, -2, -1.3%
Cc1[nH]c2c(C)cccc2c(=O)c1Br
  0%, 3%, 3, 2.5%
COc1ccccc1C(=O)CSc1cccc[n+]1[O-]
  -2%, 13%, -3, -2.9%
COC(=O)c1ccc(C2=NOC(C)(c3sc(-c4ccc(Cl)cc4)nc3C)C2)cc1 (stereo not drawn)
  -4%, -3%, 0, -2.0%
CCN(CC)CCn1c(/N=C/c2ccc(OC)c(OC)c2)nc2ccccc21
  x, -9%, x, 1.5%
O=C(OCc1ccc([N+](=O)[O-])cc1)c1cnc(Cl)c(Cl)c1
  1%, -9%, x, 3.1%
N#C/C(=C\c1ccccc1)C(=O)NNS(=O)(=O)c1cccc([N+](=O)[O-])c1
  x, -2%, x, 0.0%
Nc1oc2ccccc2c(=O)c1-c1ccc2c(c1)OCO2
  -48%, 2%, x, -1.0%
CCOc1ccc(-c2n[nH]c(=S)o2)cc1
  -32%, -2%, 0, 0.6%
O=c1oc2ccccc2c(NCc2ccccc2)c1[N+](=O)[O-]
  0%, 1%, 2, -1.4%
CN(CC1CCCN(CCc2ccc(Cl)cc2)C1)C(=O)C(=O)c1ccco1 (stereo not drawn)
  1%, 0%, x, 5.5%
CCC(=O)Nc1ccc(C(=O)NNC(=O)c2ccc([N+](=O)[O-])cc2)cc1
  0%, -2%, -1, 0.7%
O=C(O)c1ccc(S(=O)(=O)Nc2cccc(CP(=O)(c3ccccc3)c3ccccc3)c2)cc1
  -1%, 2%, 6, -1.0%
